Measles inh: inhibitors of measles virus growth in cells, primary screen, measles RdRp inhibitor project, cell-based, single point, HTS; 0.1% of 33,000 active; AID 745, 2007; infected Vero cells, GFP fluorescence, 64 h; hits give low values; z-score (test concentration not listed);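 active means z-score under -3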;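 further: score is relative to mean and SD of the compound wells of a plate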
* marks the source's active call; other numbers are inactive results. Not all compounds are listed, so the mix of outcomes need not match the whole.

Measles inh,SMILES
1.05,COc1ccc(-c2c3c(nc4sc(C(=O)NCCc5ccccc5)c(N)c24)CC(C)(C)CC3=O)cc1
0.32,COC(=O)C1=NNC2(C)C(=O)N(c3ccc(C)cc3)C(=O)C12 (centres undefined)
-0.4,COc1ccc(C2C=C(c3ccc(Br)cc3)Nc3nnnn32)c(OC)c1OC (centres undefined)
-1.23,Cc1cccc(CCNC(=O)C(C)C2Sc3ccccc3NC2=O)c1 (centres undefined)
-1.01,NC(=O)c1ccccc1NC(=O)c1cccc(F)c1
-0.47,Cc1cc(Cl)ccc1OCC(=O)Nc1ccc(N2CCOCC2)cc1
0.16,CCC(=O)N1CCc2cc(S(=O)(=O)CCC(=O)N3CC(C)CC(C)C3)ccc21 (centres undefined)
-0.4,COC(=O)CC1NCCNC1=O (centres undefined)
-2.38,CC(=O)Oc1c(S(=O)(=O)c2ccc(C)cc2)c(C)nn1C(C)(C)C
0.72,Cc1cccn2c(=O)c3cc(C(=O)NC4CCCC4)c(=N)n(C(C)C)c3nc12
-0.13,Cc1ccc(C(=O)NCc2n[nH]c(=S)n2-c2cccc(Cl)c2)cc1
-0.18,O=C(CSc1nnc2sc3ccccc3n12)Nc1ccccc1Cl
-0.14,COCCCNC(=O)c1c[nH]c2ccc(S(=O)(=O)N(C)c3c(C)cccc3C)cc2c1=O
1.29,O=C(C[n+]1cccc(CO)c1)Nc1nccs1
-0.65,Nc1cc(OC(=O)c2ccccc2F)nn1S(=O)(=O)c1ccc(F)cc1
1.99,CCN(Cc1ccccc1)C(=O)c1c[nH]c2ccc(S(=O)(=O)N3CCc4ccccc43)cc2c1=O
0.88,CC1=C(C)CC2C(=O)N(c3ccc(N(C)C)cc3)C(=O)C2C1 (centres undefined)
-0.94,CCOC(=O)c1ccccc1NC(=O)c1ccc(OC)c(OC)c1
-0.52,COc1cc(C(=O)N2N=C(C3CC3)CC2(O)C(F)(F)F)cc(OC)c1OC (centres undefined)
0.53,Cc1cc(C)cc(-n2ccnc2SCC(=O)Nc2nc3ccc(C)cc3s2)c1
1.44,COc1ccc(Cl)cc1N1C(=O)C(Cl)=C(Nc2cccc(O)c2)C1=O
-0.79,O=C(CSc1nc2ccsc2c(=O)n1-c1ccc(Br)cc1)N1CCCC1
0.28,COC(=O)c1c(C(=O)OC)c2n(c1C)Cc1ccccc1C2
-1.69,CCN1CSC(=S)N(Cc2ccc(OC)cc2)C1
-0.65,O=C1CCCN1CCCn1c(=S)[nH]c2cc(C(=O)N3CCOCC3)ccc2c1=O
-0.79,Cc1n[nH]c(C)c1S(=O)(=O)N1CCN(c2cccc(Cl)c2)CC1
-0.59,CC1CCN(CCCNC(=O)c2cc(-c3ccncc3)nc3ccccc23)CC1
1.47,CCCN(CCC)C(=O)Cn1c(=O)n(-c2ccc(Cl)cc2)c(=O)c2c3c(sc21)CCC3
0.06,COc1ccc(CCn2c(=S)[nH]c3c(sc4ccc([N+](=O)[O-])cc43)c2=O)cc1OC
0.28,CCOc1ccc(-c2cc(C(=O)NCCCN3CCCC3)c3ccccc3n2)cc1
-0.06,COc1ccc(-c2ccc3c(N)c(C(=O)Nc4ccc(C(C)=O)cc4)sc3n2)cc1
-0.02,CCC(C)(NC(C)=O)C(=O)NC1CCCCC1 (centres undefined)
-1.04,O=C(Nc1ccc(-c2noc(-c3ccccc3F)n2)cc1)c1cccs1
1.15,Cc1ccc(C(=O)Oc2ccc(C(=S)N3CCOCC3)cc2)cc1
-0.69,CC(C)(C)c1ccc(OCCNS(=O)(=O)c2ccccc2[N+](=O)[O-])cc1
0.15,COc1cccc(C(=O)N2CC(=O)Nc3ccc(Br)cc3C2c2ccc(F)cc2)c1OC (centres undefined)
-0.7,Cc1ccc2nc(-c3ccccc3)cc(C(=O)Nc3ccccc3Cl)c2c1
2.11,COc1ccc(S(=O)(=O)NCc2ccc(C(=O)NCc3ccccc3)cc2)cc1
0.13,OCCCc1nc2n(n1)C(c1cccc(Cl)c1)C=C(c1ccc(F)cc1)N2 (centres undefined)
0.99,Cn1c2c(c(=O)[nH]c1=O)C(c1ccc([N+](=O)[O-])cc1)C1=C(N2)c2ccccc2C1=O (centres undefined)
-0.98,CN(c1ccc(N2C(=O)C3C4C=CC(C4)C3C2=O)cc1[N+](=O)[O-])C1CCCCC1 (centres undefined)
-0.21,COCc1cc(C)nc(SCC(=O)c2ccc(Cl)cc2)c1C#N
0.86,Cc1ccc2c(c1)N(CC(=O)NCCCN1CCOCC1)C(=O)CO2
-0.92,CCc1ccc(NS(=O)(=O)c2ccc3[nH]cc(C(=O)NC4CCCCC4)c(=O)c3c2)cc1
0.47,COc1ccc(CCNC(=O)c2c[nH]c3ccc(S(=O)(=O)N4CCc5ccccc54)cc3c2=O)cc1OC
-0.45,CCCCN(CC)C(=O)c1nn(-c2cc(OC)cc(OC)c2)c(=O)c2ccccc12
-0.26,O=C(CSc1nc2ccccc2[nH]1)N1CCN(Cc2ccc3c(c2)OCO3)CC1
0.3,CC(C)(C)C(=O)C[n+]1ccccc1
0.31,c1cncc(CNc2cccc(-c3nc4ccccc4s3)c2)c1
0.32,O=[N+]([O-])c1ccc(N2CCN(CCO)CC2)c(C=Nc2ccc3c(c2)oc2ccccc23)c1
-0.69,CC(=O)C1=NN(c2ccccc2)C2C(=O)N(c3cccc(Cl)c3)C(=O)C12 (centres undefined)
-0.07,CCOC(=O)c1cnc2ccc(OC)cc2c1Nc1cccc(C)c1
-0.05,Cc1cccc(NC(=O)c2cc(S(=O)(=O)N(C)Cc3ccccc3)ccc2F)c1C
1.85,COc1cc2c(cc1NC(=O)C1CCCCC1)oc1ccccc12
-0.73,COc1ccc(C2CC(=O)c3c([nH]c(C(=O)OC4CCCCC4)c3C)C2)cc1 (centres undefined)
-0.37,COc1cc(C2C(C(=O)c3ccco3)=C(O)C(=O)N2Cc2cccnc2)ccc1O (centres undefined)

(cont.)
Measles inh,SMILES
-0.16,O=C(CCCN1C(=O)c2cccc3cccc(c23)C1=O)OCC(=O)c1ccc(F)cc1
-0.44,Cc1nc(Nc2nc3c(c(=O)[nH]2)CCC3)nc2ccccc12
-0.68,CCOC(=O)c1sc(NC(=O)c2cc(-c3ccc(C)s3)nc3ccccc23)nc1C
0.38,CCOc1ccc(Nc2nc(C)c([N+](=O)[O-])c(Nc3ccccc3)n2)cc1
-0.2,Cc1cc(C)cc(Nc2ccc(C(=O)O)cc2N)c1
-0.05,O=[N+]([O-])c1ccc(N2CCCC2)c(S(=O)(=O)N2CCOCC2)c1
-1.85,Cc1ccc(-n2c(SCC(=O)Nc3ccc4c(c3)OCO4)nc3c(c2=O)SCC3)cc1
0.04,O=C(NC1CC1)c1ccc(COc2ccc(F)cc2)o1

3 structures from above, sorted by heavy-atom count, falling:
Measles inh,SMILES
-0.05,Cc1cccc(NC(=O)c2cc(S(=O)(=O)N(C)Cc3ccccc3)ccc2F)c1C
-0.73,COc1ccc(C2CC(=O)c3c([nH]c(C(=O)OC4CCCCC4)c3C)C2)cc1 (centres undefined)
-0.13,Cc1ccc(C(=O)NCc2n[nH]c(=S)n2-c2cccc(Cl)c2)cc1

The list goes on:
Measles inh,SMILES
-0.58,COc1ccccc1C(=O)Nc1ccc(NC(=O)c2ccccc2)c(C)c1
0.31,COc1ccccc1NC(=O)C1CCN(S(=O)(=O)c2ccc(C)cc2)CC1
-0.65,CC1=NN(C(=O)C2c3ccccc3Oc3ccccc32)C(O)(C(F)(F)F)C1 (centres undefined)
-0.62,Cc1cccc(OCc2nc(-c3nonc3N)no2)c1C
-0.71,CC1=C(C(N)=O)C(c2ccc(Cl)cc2)n2nc(SCc3ccccc3F)nc2N1 (centres undefined)
-0.33,CCCOC(=O)c1cccc(NC(=O)COc2ccc(C)cc2Br)c1
-0.75,COc1ccc(C2C(C(=O)OC3CCCCC3)=C(C)NC3=C2C(=O)CCC3)cc1Br (centres undefined)
-1.97,Cc1cccc(C)c1OCC(=O)NCc1ccccc1
-0.56,COC(=O)CNc1c(-c2ccc(O)c(OC)c2)nc2cnccn12
0.1,O=S(=O)(c1ccc(-c2csc(Nc3ccc(I)cc3)n2)cc1)N1CCOCC1
-0.24,CCn1c(N=Cc2ccccc2Cl)nc2ccccc21
0.13,CC(C)c1ccc(NC(=O)C(c2cc3c(cc2[N+](=O)[O-])OCO3)N2CCN(C(=O)c3ccco3)CC2)cc1 (centres undefined)
2.22,O=C(Nc1ccc(N2CCCCC2)cc1)c1ccc(-c2ccc(Cl)cc2)o1
0.43,COC(=O)c1cn(C(=O)COc2ccc(Cl)c(C)c2)c2ccccc12
-0.09,O=C(CSc1nc(-c2ccco2)cc(C(F)(F)F)n1)NCC1CCCO1 (centres undefined)
0.74,CCCCNC(=O)n1c(=O)oc2cc(Cl)ccc21
0.65,Cc1ccc2ccc(C(Nc3ccccn3)c3ccc(OCc4ccccc4)cc3)c(O)c2n1 (centres undefined)
-0.68,Cc1ccc(OCc2nc(-c3cccc([N+](=O)[O-])c3)no2)c(Br)c1
0.42,COc1ccccc1NC(=O)CCS(=O)(=O)c1ccc2c(c1)CCN2C(C)=O
-0.63,CCOC(=O)c1c(NC(=O)c2ccc(Br)o2)sc2c1CCC(CC)C2 (centres undefined)
-0.99,CC1CCc2c(sc3ncn(Cc4ccc(Cl)cc4)c(=O)c23)C1 (centres undefined)
0.01,CCOC(=O)CSC1=Nc2ccccc2C2=NC(CC(=O)N3CCN(c4ccccc4)CC3)C(=O)N12 (centres undefined)
-0.2,CC(C)NC(=O)c1cc2cc3ccc(Cl)cc3nc2o1
-0.3,CCN(CC)C(=O)c1sc2c(c1C)c(=O)n(-c1ccc(C)c(C)c1)c(=O)n2Cc1cc(=O)n2ccccc2n1
-0.74,CCOC(=O)C1=C(C)N=C2c3ccccc3C(=O)C2C1c1ccc(C)cc1 (centres undefined)
-1.11,O=C(NCC1(c2ccccc2)CCOCC1)C1COc2ccccc2O1 (centres undefined)
-0.96,CCCCCOc1ccc(NS(=O)(=O)c2ccc3c(c2)C(=O)c2ccccc2C3=O)cc1
-0.59,Cc1ccc(NC(=O)C2C3C=CC4(O3)C2C(=O)N(C2CC2)C4C(=O)NC2CCCCC2)cc1C (centres undefined)
0.95,O=C(O)C1CSC(c2ccc([N+](=O)[O-])s2)N1 (centres undefined)
-0.37,Cc1cc(C)c(S(=O)(=O)NCC2CCC(C(=O)N(C)Cc3ccccc3)CC2)c(C)c1 (centres undefined)
0.75,CCN(CC)S(=O)(=O)c1ccc(C(=O)Nc2c3c(nn2-c2ccc(Cl)cc2)CSC3)cc1
-1.18,CCOC(=O)c1sc(NC(=O)CSc2n[nH]c(CC)n2)nc1C
0.58,O=C(CCC(=O)OCc1ccc(Br)cc1)Nc1nc(-c2ccccc2)cs1
-0.85,O=C1C2C(c3ccccc3F)NN(C(=O)c3cccc(Br)c3)C2C(=O)N1c1ccccc1Cl (centres undefined)
-0.62,Cc1ccc(-n2c(=O)c3sccc3n(CC(=O)N3CCCCC3C)c2=O)cc1 (centres undefined)
1.1,COc1ccc(-c2cc(C(F)(F)F)nc(-n3c(C)nc4ccccc43)n2)cc1
-0.59,COc1ccc(NC(=O)CC2OCCN(C)C2=O)cc1 (centres undefined)
-1.15,COc1ccc(NS(=O)(=O)c2cc(C(=O)Nc3ccc(Br)cc3)ccc2Br)cc1
-0.44,CCOc1ccc(NC(=O)c2ccccc2)c(NC(=O)c2c(-c3ccccc3Cl)noc2C)c1
2.22,CC1CC(C)CN(C(=O)c2ccc(SCc3ccccn3)c([N+](=O)[O-])c2)C1 (centres undefined)
-0.06,CC(=O)Nc1cc(C(=O)NCCN2CCc3ccccc3C2)ccc1Sc1ccc(C)cc1
-0.23,CCCC(=O)NC(C)c1nc2ccccc2n1C (centres undefined)
-0.2,O=C(CC1(O)C(=O)N(CCc2ccccc2)c2ccccc21)c1ccccc1[N+](=O)[O-] (centres undefined)
-0.08,Cc1ccc2nc(NC(=O)c3ccccc3Br)sc2c1
-0.97,CCN1C(=O)c2ccccc2Sc2ccc(C(=O)NCCCN3CCCCC3)cc21
-0.44,CCC(C)NC(=O)C1CCC(=O)N(c2ccc(OC)cc2)C1c1ccc(F)cc1 (centres undefined)
-0.28,CCOc1ccc(NC(=O)c2oc(=O)c3ccccc3c2-c2ccccc2)cc1
1.62,Cc1cc2c(cc1C)NC(CC(=O)Nc1ccc(F)cc1)C(=O)N2 (centres undefined)
-0.32,COC(=O)C1=C(C)NC2=C(C(=O)CCC2)C1c1ccc(OCc2ccc(Cl)cc2)c(OC)c1 (centres undefined)
0.39,COc1ccc([N+](=O)[O-])cc1NC(=O)c1ccccc1Cl
6.24,Cc1ccc(O)c(C2=Nc3ccccc3N=C(c3ccc(F)cc3)C2)c1

Structures listed so far with a nitro group on carbon (13):
Measles inh,SMILES
0.06,COc1ccc(CCn2c(=S)[nH]c3c(sc4ccc([N+](=O)[O-])cc43)c2=O)cc1OC
-0.69,CC(C)(C)c1ccc(OCCNS(=O)(=O)c2ccccc2[N+](=O)[O-])cc1
0.99,Cn1c2c(c(=O)[nH]c1=O)C(c1ccc([N+](=O)[O-])cc1)C1=C(N2)c2ccccc2C1=O (centres undefined)
-0.98,CN(c1ccc(N2C(=O)C3C4C=CC(C4)C3C2=O)cc1[N+](=O)[O-])C1CCCCC1 (centres undefined)
0.32,O=[N+]([O-])c1ccc(N2CCN(CCO)CC2)c(C=Nc2ccc3c(c2)oc2ccccc23)c1
0.38,CCOc1ccc(Nc2nc(C)c([N+](=O)[O-])c(Nc3ccccc3)n2)cc1
-0.05,O=[N+]([O-])c1ccc(N2CCCC2)c(S(=O)(=O)N2CCOCC2)c1
0.13,CC(C)c1ccc(NC(=O)C(c2cc3c(cc2[N+](=O)[O-])OCO3)N2CCN(C(=O)c3ccco3)CC2)cc1 (centres undefined)
-0.68,Cc1ccc(OCc2nc(-c3cccc([N+](=O)[O-])c3)no2)c(Br)c1
0.95,O=C(O)C1CSC(c2ccc([N+](=O)[O-])s2)N1 (centres undefined)
2.22,CC1CC(C)CN(C(=O)c2ccc(SCc3ccccn3)c([N+](=O)[O-])c2)C1 (centres undefined)
-0.2,O=C(CC1(O)C(=O)N(CCc2ccccc2)c2ccccc21)c1ccccc1[N+](=O)[O-] (centres undefined)
0.39,COc1ccc([N+](=O)[O-])cc1NC(=O)c1ccccc1Cl

From PubChem BioAssay
